MT1-MMP act inh: MT1-MMP (human) activation inhibition. P50281. HT1080 RFP-PRO-GFP cells, GFP/RFP ratio fluorescence, overnight; percent of plate control window, DMSO zero. GFP/RFP ratio change, % at 20 µM. 360,000 tested, 0.061% active. AID 651647;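 active means GFP/RFP ratio change of at least 30% with cell ATP level not reduced by more than half and red fluorescence within 50% of control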; further: strong numbers were not always called active
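Material: RFP-PRO-GFP reporter HT1080 cells. Dosing: single-point 20 µM compound, 1% DMSO. Controls: DMSO and RFP-L50D-GFP cell wells. Timing: cells overnight before dosing, compound overnight, 37 °C, 5% CO2. Measure: GFP/RFP fluorescence ratio.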
UUG fidelity: yeast start codon fidelity modulation. S. cerevisiae UUG-firefly luciferase reporter, luminescence/redox ratio. AID 602363. 350,000 tested, 0.13% active. activity score, % at 18.7 µM;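 active means replicate mean at a twofold rise or more, about +100% in these data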;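 further: firefly luciferase made from a UUG start codon reports start codon fidelity; reporter light over untreated wells divided by growth signal over untreated wells; some hits fall short of that in this replicate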
PABP FP inh: PABP-poly(A) binding inhibition | P11940 | PABP-poly(A) RNA binding, fluorescence polarization | inhibition, % at 35 µM | 290,000 tested, 1% active | AID 2014;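 active means 50% or more with normal probe brightness, or confirmed in later tests; about a fifth of its hits are not listed in these tables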;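 further: calls also rest on retests at 20 µM and on dose response follow-up; controls were probe without protein and protein plus probe with vehicle; some compounds called inactive have numbers as strong as hits; many hits fall short of the cut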
Target sequence (P11940 whole entry, looked up): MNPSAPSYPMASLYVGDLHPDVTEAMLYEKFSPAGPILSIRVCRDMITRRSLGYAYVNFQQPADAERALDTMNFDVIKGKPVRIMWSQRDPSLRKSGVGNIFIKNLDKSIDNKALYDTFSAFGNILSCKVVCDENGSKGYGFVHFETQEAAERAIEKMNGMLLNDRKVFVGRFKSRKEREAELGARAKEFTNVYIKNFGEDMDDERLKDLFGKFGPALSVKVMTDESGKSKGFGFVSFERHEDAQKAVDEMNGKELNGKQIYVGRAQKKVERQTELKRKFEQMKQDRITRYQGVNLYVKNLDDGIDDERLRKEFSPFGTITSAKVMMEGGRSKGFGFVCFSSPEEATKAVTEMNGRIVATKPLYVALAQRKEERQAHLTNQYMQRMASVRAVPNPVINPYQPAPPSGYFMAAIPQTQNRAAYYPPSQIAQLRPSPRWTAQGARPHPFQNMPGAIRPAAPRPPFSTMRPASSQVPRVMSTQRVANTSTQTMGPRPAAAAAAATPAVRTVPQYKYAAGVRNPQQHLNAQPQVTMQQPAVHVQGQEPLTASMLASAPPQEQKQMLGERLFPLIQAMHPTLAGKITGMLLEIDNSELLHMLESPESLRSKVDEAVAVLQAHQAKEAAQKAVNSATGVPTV
Rce1 inhib: blocks yeast Ras-converting enzyme; Q03530; yeast membranes, quenched prenylated peptide cleavage fluorescence; calls only; 290,000 tested, 0.27% active;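 active means fall in fluorescence gain of 50% or more versus controls, with final raw signal at or below 3038400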;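 further: plate controls were neutral control wells for no effect and wells lacking membranes for full effect; tested at 10 µM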
Target sequence (Q03530 whole entry, looked up): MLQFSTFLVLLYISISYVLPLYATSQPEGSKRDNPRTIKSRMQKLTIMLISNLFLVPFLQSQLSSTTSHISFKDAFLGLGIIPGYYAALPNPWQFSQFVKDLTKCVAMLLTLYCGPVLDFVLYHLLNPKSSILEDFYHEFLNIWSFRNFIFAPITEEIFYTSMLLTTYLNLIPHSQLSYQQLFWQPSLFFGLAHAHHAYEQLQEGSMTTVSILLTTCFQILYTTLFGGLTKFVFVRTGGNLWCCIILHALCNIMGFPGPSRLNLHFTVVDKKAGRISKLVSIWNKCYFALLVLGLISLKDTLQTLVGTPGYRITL
eIF4H inh: inhibitors of RNA binding by human eIF4H. inhibition, % at 35 µM. Q15056. 290,000 tested, 0.94% active. eIF4H fluorescence polarization binding assay;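 active means 50% or more with normal probe brightness, or confirmed in later tests; about a fifth of its hits are not listed in these tables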;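 further: calls also rest on retests at 20 µM and on dose response follow-up; 0% = protein and probe with vehicle and 100% = probe without protein; strong numbers were not always called active; many hits fall short of the cut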
Env fusion inh: inhibitors of HIV Env-mediated cell fusion; HeLa-JRFL Env/CEM21 cell fusion, luciferase; inhibition, % at 12.3 µM; 360,000 tested, 1.1% active; AID 651610;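 active means mean replicate inhibition score of at least 50 and every replicate individually at or above 50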;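 further: 0% = plate neutral controls and 100% = maraviroc near 300 nM; one replicate is shown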
CSC inhib: blocks cancer stem cells; cancer stem cell-like cells viability, luminescence; inhibition, % at 7.5 µM; 300,000 tested, 1.1% active; AID 2717;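 active means mean at 75% or more and at least half the replicates too; tested in HMLE shEcad cells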;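 further: 0% = median of negative and 100% = median of positive control wells; the first replicate is given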
MT1-MMP act inh RFP: recorded beside MT1-MMP act inh, whose call it bears; RFP signal change, %; measured here: RFP expression control read;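 0 = vehicle wells; hits needed this value within 50% of zero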
Starred values were filed as active, the others as inactive; i = inactive; · = not tested or not shown. An unsorted share of the library, and some 2.9% of all compounds hit somewhere here.

1) CCCC12C(=O)C(C)(C(c3ccccc3)=C1c1ccccc1)C1C(=O)N(c3ccc(C)cc3)C(=O)C12 (stereo unspecified)
2) COc1cc(/C=N/NC(=O)c2ccc(CN3C(=O)c4cccc5cccc3c45)cc2)cc(OC)c1O
3) CN(C)S(=O)(=O)c1cccc(-c2nnc3n2CCCCC3)c1
4) O=C(Nc1ccccc1C(F)(F)F)C1CCN(C(=O)c2cccs2)CC1
5) CC(C)c1ccc(NC(=O)COC(=O)c2nn(C)c(=O)c3ccccc23)cc1
6) COC(=O)CN(c1ccc(F)cc1)S(=O)(=O)c1ccc2c(c1)OCCO2
7) CC(Sc1nnc(NC2CC2)s1)C(=O)Nc1ccc(S(N)(=O)=O)cc1 (stereo unspecified)
8) CCCc1nc2ccccc2c(C(=O)OCC(=O)Nc2c(C)n(C)n(-c3ccccc3)c2=O)c1CC

assay / entry,1,2,3,4,5,6,7,8
MT1-MMP act inh,-9,5,-8,0,4,4,-1,-3
MT1-MMP act inh RFP,-21,-15,-1,0,0,5,5,0
UUG fidelity,·,-3,·,-5,-19,·,-10,-1
PABP FP inh,0,6,-4,-4,·,-6,·,-9
Rce1 inhib,i,i,i,·,·,·,·,i
eIF4H inh,-2,-8,0,-12,·,-3,·,-8
Env fusion inh,83*,4,-12,10,·,·,-10,-34
CSC inhib,-2,-5,-19,-17,-4,4,-16,-1

Arranged by the number under UUG fidelity (largest number first): 5 from the list above.
No.	canonical_smiles	UUG fidelity
8	CCCc1nc2ccccc2c(C(=O)OCC(=O)Nc2c(C)n(C)n(-c3ccccc3)c2=O)c1CC	-1
2	COc1cc(/C=N/NC(=O)c2ccc(CN3C(=O)c4cccc5cccc3c45)cc2)cc(OC)c1O	-3
4	O=C(Nc1ccccc1C(F)(F)F)C1CCN(C(=O)c2cccs2)CC1	-5
7	CC(Sc1nnc(NC2CC2)s1)C(=O)Nc1ccc(S(N)(=O)=O)cc1 (stereo unspecified)	-10
5	CC(C)c1ccc(NC(=O)COC(=O)c2nn(C)c(=O)c3ccccc23)cc1	-19

Remaining list, next part.
9) O=C(Nc1ccc2nc(N3CCOCC3)sc2c1)c1ccccc1
10) CCOC(=O)C1=C(C)OC(N)=C(C#N)C1c1ccoc1 (stereo unspecified)
11) C=C1C[C@H](O[C@@H]2O[C@H](CO)[C@@H](O)[C@H](O)[C@H]2O)[C@@H]2[C@H](OC(=O)[C@H]2C)[C@H]2[C@H](C)[C@H](O)C[C@@H]12
12) c1ccc(CCNc2nc(-c3ccncc3)nc3ccccc23)cc1
13) CSc1ccc(CCNC(=O)CN2C(=O)CCSc3ccccc32)cc1
14) O=c1[nH]cnc(O)c1C(c1ccc([N+](=O)[O-])cc1)c1c(O)nc[nH]c1=O
15) CCOc1ccccc1C1CC(=O)Nc2cc(OC)c(OC)c(OC)c21 (stereo unspecified)
16) COc1ccc(OC)c(C(=O)CSc2nc3ccccc3n2CC(=O)NC(C)(C)C)c1

assay / entry,9,10,11,12,13,14,15,16
MT1-MMP act inh,-4,-16,1,-10,1,2,4,2
MT1-MMP act inh RFP,-3,4,4,-18,3,3,7,1
UUG fidelity,9,-11,-18,-17,-3,11,-9,10
PABP FP inh,·,19,·,-13,-9,6,-3,5
Rce1 inhib,·,i,·,i,i,i,i,·
eIF4H inh,·,16,·,-6,-11,6,2,-7
Env fusion inh,·,-55,-7,38,12,-11,·,·
CSC inhib,-4,8,-3,61,-12,-20,8,-6

17) Cc1cc(C)c(NC(=O)/C(=C/c2ccco2)c2ccccc2)c(C)c1
18) COc1ccccc1Oc1cc(C#N)c(C#N)cc1-n1nnc2ccccc21
19) Cc1cc(-c2ccccc2)c2nncn2n1
20) COCCn1c(C)cc(C(=O)CSc2ncnc3sc4c(c23)CCC4)c1C
21) Cc1ccc(CNC(=O)C2CC(=O)N(C3CCCCCCC3)C2)cc1 (stereo unspecified)
22) Cc1sc2ncnc(SCC(=O)Nc3nc(-c4ccc(F)c(F)c4)cs3)c2c1C
23) COc1ccc(-c2nnc(SCC(=O)c3ccc[nH]3)n2-c2ccccc2)cc1
24) CC(C)NC(=O)c1onc(CSc2ccc(F)c(F)c2)c1C(=O)O

assay / entry,17,18,19,20,21,22,23,24
MT1-MMP act inh,-14,-7,0,2,2,-4,-3,4
MT1-MMP act inh RFP,-5,-10,1,-1,2,-5,2,6
UUG fidelity,-15,9,-19,-26,3,·,-18,-4
PABP FP inh,-3,17,2,16,-3,-3,-3,1
Rce1 inhib,i,i,i,i,i,i,i,i
eIF4H inh,-1,-8,-5,10,5,-2,22,-2
Env fusion inh,21,30,-52,-4,·,-18,-44,-13
CSC inhib,33,·,-6,·,7,3,-3,4

25) Nc1nnnn1/N=C/C=C/c1ccccc1
26) COP(=O)(OC)C(NC(=O)Nc1ccccc1)c1ccccc1 (stereo unspecified)
27) COc1ccc(S(=O)(=O)N2CCCCC2)cc1NC(=O)c1ccc(=O)[nH]c1
28) COc1ccccc1NC(=S)NC(NC(=O)CC(C)C)C(Cl)(Cl)Cl (stereo unspecified)
29) CSCCC(NC(=O)c1ccco1)C(=O)OCC(=O)Nc1sccc1C#N (stereo unspecified)
30) CC1(C)NC(=O)N(CC(O)COc2ccccc2[N+](=O)[O-])C1=O (stereo unspecified)
31) CCCCC[C@H](O)/C=C/[C@@H]1[C@@H](C/C=C\CCCC(=O)O)[C@H]2CO[C@@H]1C2
32) Cc1cc(C)n2nc(C(=O)N3CCOCC3)nc2n1

assay / entry,25,26,27,28,29,30,31,32
MT1-MMP act inh,2,-4,12,-2,·,1,8,1
MT1-MMP act inh RFP,1,2,8,-1,·,-5,4,2
UUG fidelity,-13,·,·,·,·,-26,-13,-17
PABP FP inh,12,3,-10,-2,28,-3,-1,0
Rce1 inhib,i,i,i,i,i,i,i,i
eIF4H inh,9,-8,0,-4,22,2,-4,-2
Env fusion inh,·,-7,-8,-3,·,-1,-76,-5
CSC inhib,-9,-2,-2,-3,-8,-16,·,-11

Some of the entries above, reformatted:
entry	smiles	MT1-MMP act inh	MT1-MMP act inh RFP	UUG fidelity	PABP FP inh	Rce1 inhib	eIF4H inh	Env fusion inh	CSC inhib
32	Cc1cc(C)n2nc(C(=O)N3CCOCC3)nc2n1	1	2	-17	0	i	-2	-5	-11
30	CC1(C)NC(=O)N(CC(O)COc2ccccc2[N+](=O)[O-])C1=O (stereo unspecified)	1	-5	-26	-3	i	2	-1	-16
31	CCCCC[C@H](O)/C=C/[C@@H]1[C@@H](C/C=C\CCCC(=O)O)[C@H]2CO[C@@H]1C2	8	4	-13	-1	i	-4	-76	·
27	COc1ccc(S(=O)(=O)N2CCCCC2)cc1NC(=O)c1ccc(=O)[nH]c1	12	8	·	-10	i	0	-8	-2

Continued.
33) Cc1nn(-c2ccccc2)c(C)c1/C=N/NC(=O)CSc1nnc(SCc2ccccc2Cl)s1
34) O=C1NCCCc2nonc21
35) COc1ccc(C2(C(=O)NCc3ccco3)CCCC2)cc1OC
36) CCCCC(O)CN1CCC(c2ccccc2)CC1 (stereo unspecified)
37) N#Cc1ccccc1S(=O)(=O)N1CCN(C(=O)c2cc3c(s2)CCC3)CC1
38) COc1cccc(CNC(=O)C2CCCN(c3nc4ccccc4o3)C2)c1 (stereo unspecified)
39) CSc1nn(-c2ccc(C(=O)OCC(=O)NC(=O)NC(C)C)cc2)c(=S)s1
40) O=C(CSc1ccccc1)NC1CC1

assay / entry,33,34,35,36,37,38,39,40
MT1-MMP act inh,-5,8,3,-4,-3,2,-3,3
MT1-MMP act inh RFP,-10,6,10,0,-1,-1,0,7
UUG fidelity,·,-9,-21,-17,7,-8,·,-12
PABP FP inh,-1,3,-4,9,·,3,6,·
Rce1 inhib,i,i,i,i,·,i,i,·
eIF4H inh,-7,8,-17,-9,·,10,2,·
Env fusion inh,8,·,-6,-160,-1,·,12,18
CSC inhib,9,4,-4,-2,·,-6,-4,·

41) Cc1nnc(NC(=O)c2cccc(S(=O)(=O)N3CCN(C)CC3)c2)s1
42) CCOC(=O)c1sc(=S)n(-c2ccccc2)c1N
43) CCc1nnc(SCC(=O)Nc2nc(C)c(C(=O)N(C)C)s2)n1CC
44) CCO/C=C1/C(=O)N(C(C)=O)c2ccccc21
45) COCCSc1ccccc1C(=O)N1CCOCC1
46) Cc1nc2sc(C(N)=O)c(N)c2c2c1CCCC2
47) COc1ccc(Cl)cc1CN1C(=O)C(Cc2ccccc2)ON=C1C (stereo unspecified)
48) CC1CCC/C(=C\Nc2ccc(C(=O)O)c(O)c2)C1=O (stereo unspecified)

assay / entry,41,42,43,44,45,46,47,48
MT1-MMP act inh,-3,2,1,-7,3,-17,5,-1
MT1-MMP act inh RFP,2,-2,5,3,4,-7,-6,0
UUG fidelity,-14,-13,-16,0,-14,·,-9,·
PABP FP inh,·,0,-8,0,-10,0,·,24
Rce1 inhib,i,i,i,i,i,i,·,i
eIF4H inh,·,16,7,-3,-7,-6,·,13
Env fusion inh,i,·,4,2,-103,44,-18,-30
CSC inhib,-1,-7,-9,-14,-5,5,·,-16

49) Cc1ccc(/C=N/NC(=O)CSc2nc3ccccc3[nH]2)o1
50) O=C(CNS(=O)(=O)c1ccc2ccccc2c1)OCc1nnc(-c2ccccc2)o1
51) Cc1nc2cc(NS(=O)(=O)c3cccc4cccnc34)ccc2s1
52) CCNC(=S)N(Cc1cc2c(C)ccc(C)c2[nH]c1=O)C1CCCC1
53) CN(C)/C=C/C(=O)c1ccncc1
54) Cc1ccc(NC(=O)CSc2ncn[nH]2)c([N+](=O)[O-])c1
55) CC(C)Cc1nnc(NC(=O)CCC(=O)N2CCN(c3ccccc3)CC2)s1
56) Cc1ccc(S(=O)(=O)N2CCC(=O)N(C(COCc3ccc(Cl)c(Cl)c3)Cc3ccccc3)CC2)cc1 (stereo unspecified)

assay / entry,49,50,51,52,53,54,55,56
MT1-MMP act inh,-4,0,3,-11,0,5,2,·
MT1-MMP act inh RFP,-3,4,-13,-14,1,4,1,·
UUG fidelity,-11,12,8,·,-17,-3,-5,·
PABP FP inh,9,-4,0,-1,-5,·,2,-1
Rce1 inhib,i,i,i,i,i,·,i,i
eIF4H inh,6,-8,-2,-5,-4,·,-4,-5
Env fusion inh,-10,·,-5,9,-33,1,1,·
CSC inhib,-2,-5,·,-8,5,-14,-5,4

57) O=C(Nc1ccccc1[N+](=O)[O-])c1cccnc1Cl
58) Cc1[nH]c2c(Cl)cccc2c1CCNC(=O)C1CCCCC1C(=O)OCC(F)(F)F (stereo unspecified)
59) Cc1cccc(NC(=O)CCC(=O)N/N=C/c2cccnc2)c1
60) O=C(CCCN1C(=O)c2ccccc2C1=O)NCCC1=CCCCC1
61) CN1CCN(CC#CC(C)(O)C2CC3C=CC2C3)CC1 (stereo unspecified)
62) CCOC(=O)c1nn(-c2ccccc2C)c2nc(Nc3ccccc3)cc(=O)n12
63) CCOC(=O)c1cccc(NC(=O)CSc2nnc(CNc3ccc(C)cc3)n2CC)c1

assay / entry,57,58,59,60,61,62,63
MT1-MMP act inh,-1,0,-4,-4,-3,-2,9
MT1-MMP act inh RFP,7,-4,3,1,3,3,11
UUG fidelity,1,-14,-4,·,166*,·,-7
PABP FP inh,-5,5,10,-5,34,2,2
Rce1 inhib,i,i,i,i,i,i,i
eIF4H inh,-4,-1,-4,-1,15,-3,-4
Env fusion inh,·,-5,1,·,·,4,-26
CSC inhib,-10,-6,4,·,-5,1,-9

Two of these compounds in a different format.
entry	compound	MT1-MMP act inh	MT1-MMP act inh RFP	UUG fidelity	PABP FP inh	Rce1 inhib	eIF4H inh	Env fusion inh	CSC inhib
60	O=C(CCCN1C(=O)c2ccccc2C1=O)NCCC1=CCCCC1	-4	1	·	-5	i	-1	·	·
61	CN1CCN(CC#CC(C)(O)C2CC3C=CC2C3)CC1 (stereo unspecified)	-3	3	166*	34	i	15	·	-5

From PubChem
